gsp antag – gsp mutant antagonism; gsp-mutant cells, cAMP HTRF, 30 min; control for the full effect not named in the record; Potency, µM (titrated, usually from 76.9 µM), without a hit: top-dose activity change, negative = inhibition, hits mostly inhibitors; hit rate 0.4% among 340,000; active = falling curve of any shape with a large fitted effect; inconclusive = falling curve, mostly with a smaller effect; inactive = flat or rising curve; cell line not stated here;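 further: intracellular cAMP measured with PDE inhibitor Ro 20-1724 present during compound exposure; potency means the concentration at half of the fitted maximal effect; on the % scale 0 is the no-effect control and ±100 the full control effect; nearly all actives have a fitted effect of over 65% in size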
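HTRF cAMP read-out (cAMP-d2 plus anti-cAMP antibody-K in lysis buffer, 30 min RT). Before lysis, cells are exposed to compounds with […] for 30 min at 37C in DPBS containing Ca/Mg, BSA and Tween 20.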
gsp ag – activates gsp, the McCune-Albright syndrome mutation | Potency, µM (series often up to 76.9 µM), for the others: at the top dose activation (cAMP increase), actives largely listed as activators | hit rate 0.13% among 340,000 | gsp mutant cells, cAMP HTRF, 30 min; control for the full effect not named in the record; active = well fitted activation curve with a large enough effect; inconclusive = small, poorly fitted or top-dose-only effect, or another doubt; inactive = no such curve, though single readings can be large or run the other way; cell line not stated here;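 further: phosphodiesterase inhibitor Ro 20-1724 added with compounds to block cAMP breakdown; potency means the concentration at half of the fitted maximal effect; nearly all actives have a fitted effect of over 60% in size; about a fifth of the inactives were tested at one dose only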
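Cells in DMEM/10% FBS with G418 were pretreated with compounds in DMSO plus […] (300 uM stock) for 30 min at 37C. cAMP was measured by HTRF (cAMP-d2 plus anti-cAMP antibody-K) after 30 min at room temperature.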
Sfp PPTase inh – blocks B. subtilis Sfp PPTase activity | Q9F4F7 | Potency, µM, without a hit: max response, negative = inhibition, most hits filed as inhibitors | Biochemical Sfp PPTase activity, qHTS | hit rate 3.5% among 310,000 | AID 1490; active means well fitted inhibition curve with a large enough effect; inconclusive means small, poorly fitted or top-dose-only effect, or another doubt; inactive means no such curve, though single readings can be large or run the other way;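 further: the enzyme is Sfp with the accession as filed and its product quenches rhodamine fluorescence; potency means the concentration at half of the fitted maximal effect; 0% = enzyme reaction without inhibitor and -100% = no enzyme wells; top concentration of the series not given in the record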
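With Hepes-Na pH 7.6 buffer containing 10 mM MgCl2, Sfp (15 nM) modified BHQ-2-YbbR (12.5 uM) using rhodamine-CoA (5 uM). Two reads 30 minutes apart at 525/598 nm yielded each well's rate.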
TRPV1 PAM – potentiators of human vanilloid receptor 1 (TRPV1); Q8NER1; TRPV1-expressing cells, Fluo-8 calcium influx, capsaicin EC20 potentiation; host cell line not named in the record; control for the full effect not named in the record; potentiation, % at 8.33 µM; AID 540277; hit rate 0.02% among 320,000; active means potentiation above 80%; inconclusive means 30% to 80%; inactive means below 30%; further: 0% is about no effect
Target sequence (Q8NER1 whole entry, looked up): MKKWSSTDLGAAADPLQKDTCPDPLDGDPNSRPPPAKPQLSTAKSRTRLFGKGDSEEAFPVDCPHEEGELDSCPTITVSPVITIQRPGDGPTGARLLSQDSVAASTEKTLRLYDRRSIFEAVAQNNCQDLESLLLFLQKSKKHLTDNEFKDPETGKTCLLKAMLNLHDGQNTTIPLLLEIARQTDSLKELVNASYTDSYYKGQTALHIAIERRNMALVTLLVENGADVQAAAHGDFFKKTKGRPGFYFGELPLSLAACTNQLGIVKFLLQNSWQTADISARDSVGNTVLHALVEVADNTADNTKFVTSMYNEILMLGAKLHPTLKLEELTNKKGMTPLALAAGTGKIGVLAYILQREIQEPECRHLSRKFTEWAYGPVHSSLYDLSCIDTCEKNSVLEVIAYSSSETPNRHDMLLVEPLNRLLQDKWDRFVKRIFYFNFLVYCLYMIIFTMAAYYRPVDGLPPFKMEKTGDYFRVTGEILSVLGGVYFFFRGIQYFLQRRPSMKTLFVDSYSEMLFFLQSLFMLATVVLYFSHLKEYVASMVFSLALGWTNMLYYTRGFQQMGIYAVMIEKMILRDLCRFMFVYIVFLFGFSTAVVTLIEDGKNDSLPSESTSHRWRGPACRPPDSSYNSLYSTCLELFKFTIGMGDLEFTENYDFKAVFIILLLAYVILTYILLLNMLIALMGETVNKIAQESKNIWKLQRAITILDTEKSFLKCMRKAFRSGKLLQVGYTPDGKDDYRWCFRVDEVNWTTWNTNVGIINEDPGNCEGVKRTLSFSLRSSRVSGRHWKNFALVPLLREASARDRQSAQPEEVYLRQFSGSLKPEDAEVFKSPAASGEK
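TRPV1-expressing cells were cultured overnight at 35.5C and loaded with Fluo-8 calcium dye for 40 to 90 min at room temperature. After a 10 s baseline, compound was added and calcium influx was read kinetically for 3 min (ex 480/em 520 nm).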
CtBP-E1A blk – inhibitors of CtBP/E1A interaction; AlphaScreen GST-E1A/His-CtBP binding, 1536-well; hits give low values; control for the full effect not named in the record; AID 651724; activity change, % (concentration not given with the values); hit rate 0.49% among 340,000; in the data active means activity change below about -65%; inconclusive means about -30% to -65%; inactive means above about -30%; further: on the % scale 0 is the no-effect control and ±100 the full control effect
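AlphaScreen with 125 nM GST-E1A and 125 nM His-CtBP (5X stocks) in Tris pH 8.0, 300 mM NaCl, BSA, Tween 20, TCEP. Compounds preincubated 2 h at 37 deg C, then glutathione donor/nickel acceptor beads added for 1 h at 37 deg C in dark.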
ClpP mod – qHTS Assay for Activators of ClpP; purified B. subtilis ClpP, FRET peptide cleavage, 20 min; ATP-dependent Clp protease proteolytic subunit (Bacillus subtilis (strain 168)), P80244; Potency, µM (highest dose often 57.5 µM), for inactives: at the top dose activity change, negative = active; hit rate 1.9% among 340,000; AID 651965, 2013; active = well fitted falling curve with a large enough effect; inconclusive = small, poorly fitted or top-dose-only effect; inactive = no such curve, though single readings can be large or run the other way; further: potency means the concentration at half of the fitted maximal effect; the source files actives as falling curves though it sought activators and does not explain the sign; nearly all actives have a fitted effect of over 65% in size; many hits overshoot -100%
Target sequence (P80244 whole entry, looked up): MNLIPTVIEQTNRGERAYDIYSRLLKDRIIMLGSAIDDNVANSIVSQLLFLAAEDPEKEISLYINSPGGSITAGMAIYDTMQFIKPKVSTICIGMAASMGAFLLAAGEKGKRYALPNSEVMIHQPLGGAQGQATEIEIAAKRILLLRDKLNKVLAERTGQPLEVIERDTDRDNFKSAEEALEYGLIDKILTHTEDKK
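Buffer: 100 mM Tris/HCl pH8, 100 mM KCl, 0.05% low protease BSA, 2.5% glycerol, 0.01% Tween-20. ClpP 10 microg/mL final; 20 min RT; delta FRET normalized to ADEP and DMSO controls.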
Menin-MLL FL inh – menin-MLL binding inhibition, fluorescein peptide; FP activity change, % at 61.4 µM; Fluorescence polarization, fluorescein-MLL peptide displacement from menin; 290,000 tested, under 10 active; inconclusive = falling polarisation curve, or a change in total fluorescence; inactive = total fluorescence flat and polarisation flat or rising; no compound was filed as active; the % refers to the polarisation; negative = inhibition;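 further: % of control where 0% means no effect; inhibitors lower the polarisation; unlabelled MLL peptide was the positive control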
* marks the source's active call; other numbers are inactive results; ? = inconclusive; . = not tested or not shown; & = joins results of further samples; [ ] = remark or other dose.

SMILES | gsp antag | gsp ag | Sfp PPTase inh | TRPV1 PAM | CtBP-E1A blk | ClpP mod | Menin-MLL FL inh
CCOC(=O)N1CCN(CC(=O)Nc2ccc(Oc3ccccc3)cc2)CC1 | 6% | -3%[15.4 µM] | -3% | -10 | 0 | 28µM* | 3.5
c1cc[n+](CCCC[n+]2ccccc2)cc1 | 9% | 19% | 2% | -1 | -4 | -1.4% | -4.0
CC(=O)NS(=O)(=O)c1ccccc1 | 1% | 0% | 8% | 1 | -8 | -1.3% | 2.5
O=C(Cn1nc(-c2ccccc2)oc1=O)OCC(=O)c1ccccc1 | 7% | -13%[15.4 µM] | . | . | -18 | -2.2% | .
CCOc1cccc(Oc2ccc(C(F)(F)F)cn2)c1 | 6% | -3% | 6% | 11 | 21 | 1.3% | 0.0
O=C(CCCc1ccccc1)Nc1ccnn1C1CCN(Cc2ccc(Cl)cc2)CC1 | -3% | -16% | 0% | 28 | . | 1.7% | .
Cc1cc(C(F)F)n2nc(C(=O)Nc3cccc(C(F)(F)F)c3)nc2n1 | -1% | -1% | -2% | 1 | 1 | 0.9% | 0.7
COCCN(CC(=O)NCC1CCCO1)C(=O)CCC(=O)Nc1cc(C)ccn1 (stereo not drawn) | 10% | 7% | -9% | -4 | 0 | -2.8% | -3.0
Cc1cc(C)n2nc(C(=O)Nc3cc(S(=O)(=O)N4CCCCC4)ccc3C)nc2n1 | 7% | ? | . | . | . | -0.9% | .
CCOC(=O)C(CSCC(=O)c1ccc(Br)cc1)NC(=O)OC(C)(C)C (stereo not drawn) | . | . | 7% | -21 | . | . | 4.6
CN(C)c1ccc(Cc2ccc(N(C)C)cc2)cc1 | 4% | -11% | . | . | . | -0.1% | .
O=C(NCC(c1ccc(F)cc1)N1CCOCC1)c1cc(F)c(F)c(F)c1F (stereo not drawn) | -6% | 11%[15.4 µM] | 17% | -7 | 19 | . | -0.1
CCCCn1c(N)c(N(Cc2ccccc2OC)C(=O)c2ccc(N3CCCC3=O)cc2)c(=O)[nH]c1=O | 12% | 5% | . | 10 | 13 | 1.1% | .
NC(=O)COc1ccc(Nc2nnc(-c3ccc(O)cc3)c3ccccc23)cc1 | -8% | ? | 3% | 0 | -28 | -0.6% | 1.4
CC1C(c2ccccc2)N(C)CCC12NC(=O)NC2=O (stereo not drawn) | 7% | 1% | 13% | 5 | 2 | -2.2% | 4.9
CCN1CCN(Cc2c(OC)ccc3ccccc23)CC1 | 3% | -2% | 10% | 3 | 4 | -1.6% | 1.2
O=C(CC1C(=O)NCCN1Cc1ccccc1)NC1CCCCC1 (stereo not drawn) | . | -21% | . | . | 1 | -11% | .
O=c1c2c(nc3cc(-c4ccccc4Cl)[nH]n13)CCS2 | -24% | 16% | 22µM* | -20 | -5 | . | ?
CC(=O)/C(N)=N/Nc1cccc(Cl)c1 | 9% | -5% | -11% | 29 | -17 | 1.2% | 16
CC1(CCc2ccccc2)NC(=O)N(CC(=O)Nc2ccc3c(c2)OCCO3)C1=O (stereo not drawn) | 3% | 18% | 19% | 28 | 6 | -0.4% | -6.1
COc1ccc(-n2nc(C(=O)NCC(=O)NCCCN3CCN(C)CC3)c3ccccc3c2=O)cc1 | 15% | -7%[15.4 µM] | 9% | -1 | -9 | . | 1.0
CCCOc1ccc(-c2c(C(=O)N/N=C/c3ccccc3)nnn2-c2nonc2N)cc1 | ? | -4%[15.4 µM] | -5% | 1 | 2 | 4.3% | 3.9
CN(Cc1ccc(OC(F)F)cc1)C(=O)c1cccc(S(=O)(=O)N2CCN(c3ccccc3)CC2)c1 | ? | -2% | . | . | -12 | -2.0% | .
C/C(=N\NC(=O)c1ccc(Cl)cc1)c1ccc2[nH]ccc2c1 | 0% | 14%[15.4 µM] | 12% | -8 | -1 | -0.7% | -1.0
COCCn1nnnc1C(C(C)C)N1CCCC(C)C1 (stereo not drawn) | 3% | -4% | 6% | -4 | 8 | 0.3% | 2.3
CCCCn1c(C23CC4CC(CC(C4)C2)C3)n[nH]c1=S | -16% | 8%[15.4 µM] | -15% | -8 | -3 | -9.4% | 3.9
Brc1ccccc1-c1nnc(COc2ncnc3ccccc23)o1 | -4% | 2%[15.4 µM] | 3% | -2 | -1 | . | 1.6
CCNc1oc(COc2ccccc2F)nc1C#N | 8% | 1%[15.4 µM] | 0% | 4 | -5 | 1.1% | 3.5
COc1cc(SC)ccc1C(=O)Nc1ccc(C)cc1 | ? | -2%[15.4 µM] | ? | -13 | 0 | -0.2% | 2.1
CSCC[C@H](NC(=O)[C@@H]1Cc2ccccc2CN1)C(=O)NC1CCCC1 | 9% | -31%[inhibitor] | -5% | -1 | 7 | -1.1% | .
Cc1nn(C)c(Cl)c1S(=O)(=O)N[C@@H](c1ccccc1)[C@]1(C)C[C@H]1[C@@H](C)C(=O)Nc1ccc2ccccc2c1 | -9% | -27% | 8%&17% | 8 | -4 | -6.0% | 1.8&-3.7
CC(CC1C(C#N)=C(N)SC(N)=C1C#N)c1ccccc1 (stereo not drawn) | 3% | ? | 7.9µM* | . | 3 | -4.5% | ?
O=C(CCc1ccccc1)NNC(=O)c1cccc(F)c1 | 17% | 2% | 2% | -2 | 3 | . | -0.9
c1ccc(C2=NCCCO2)cc1 | . | -14% | . | . | 3 | -0.5% | .
O=C(Cc1ccccc1F)Nc1ccc(S(=O)(=O)N2CCCCC2)cc1 | 1% | ? | 11% | -5 | 7 | 0.9% | .
O=C(COc1ccccc1)NC1=NCCS1 | 3% | 0% | 13% | -15 | -5 | 0.7% | 3.6
CC(=O)N1c2ccc(S(=O)(=O)N3CCC(C(=O)NCc4ccc(C)cc4)CC3)cc2CC1C (stereo not drawn) | -16% | 13% | 0% | -5 | -4 | -3.8% | .
O=C(NCCc1ccc(Cl)cc1)C1(c2ccccc2)CC1 | -8% | ? | 7% | -4 | 5 | 0.1% | .
O=C(NC1CCCN(Cc2ccccc2F)C1)c1cccc(N2CCCC2=O)c1 (stereo not drawn) | 7% | 2% | 7% | 0 | -4 | -2.0% | .
O=c1oc2ccccc2c(Nc2ccc3ncccc3c2)c1[N+](=O)[O-] | -15% | -9% | 1% | 19 | -4 | -0.6% | .
CCN(CC)c1ncc(C#N)c(N)n1 | -10% | -3%[15.4 µM] | 21% | -4 | 10 | . | 1.7
CS(=O)(=O)c1ccc(Cl)c(NC(=O)COC(=O)CCN2C(=O)C3CC=CCC3C2=O)c1 (stereo not drawn) | 1% | 28% | . | . | . | 0.8% | .
Cc1cc2ccccc2n1CCNC(=O)C(C)Oc1ccccc1 (stereo not drawn) | -2% | ? | -14% | -33 | -18 | -12% | ?
CCC(C)[C@H](NC(=O)C1CCN(C(=O)[C@H](Cc2ccccc2)NS(=O)(=O)c2ccc(C)cc2)CC1)C(=O)O (stereo partly drawn) | 0% | 30%[15.4 µM] | 7% | -9 | 16 | 0.0% | 0.5
COc1cc(/C=N/n2cc(-c3ccccc3)[nH]c2=S)cc(OC)c1O | -20% | 11% | 20µM* | 5 | . | 4.1% | -1.0
CCCCOCCCNC(=O)c1ccccc1OCC | -11% | 2% | 11% | 20 | 7 | 0.2% | 0.9
Cc1ccc(NC(=O)Nc2cnccn2)cc1Cl | 6% | -32%[inhibitor] | -3% | -11 | -6 | 0.0% | -2.7
Cc1cc(=O)oc2ccc(OC(=O)CN3C(=O)c4cccc([N+](=O)[O-])c4C3=O)cc12 | -2% | -5% | 8% | -2 | -7 | -16% | 0.6
Cc1nc(NC(=O)CN(C)S(=O)(=O)c2ccc(Br)cc2)sc1C | -27% | 22% | 12% | 3 | -9 | -3.1% | 1.5
CCOc1cc(/C=C2/NC(=O)NC2=O)cc([N+](=O)[O-])c1O | ? | 2%[15.4 µM] | -1% | -5 | ? | . | -1.7
CCN(CC)c1ccc(C(=O)Nn2c(C)nc3ccccc3c2=O)cc1 | -3% | 18% | -3% | 3 | . | -0.8% | 0.2
CSc1ccccc1NC(=O)c1ccccc1N(Cc1ccccc1)S(C)(=O)=O | 4% | -1% | 6% | -19 | 12 | -0.8% | 1.5
Cn1ncc(Cl)c1C(=O)Nc1sc2c(c1C(N)=O)CCC2 | 0% | 2% | 12% | ? | 0 | -14% | 3.8
CC1CC(C)(C)N(C(=O)NC2CCCCC2)c2ccccc21 (stereo not drawn) | 6% | -41%[inhibitor] | 5% | 1 | 4 | -2.3% | 1.7
O=C(CSc1ncccn1)NC1CCCC1 | . | -39%[inhibitor] | . | . | 3 | 0.8% | .
Cc1nc2ccc(C(=O)Nc3ccc(N(C)C)cc3)cc2s1 | -17% | -4%[15.4 µM] | . | . | -6 | 0.5% | .
Cc1ccc(SCC(=O)NNC(=O)CCS(=O)(=O)c2ccc(C)cc2)cc1 | 8% | 11% | . | . | -1 | -2.7% | .
Cc1cc(C)nc(NS(=O)(=O)c2cccs2)c1 | 8% | 10% | -8% | 11 | 7 | ? | -0.8
Cc1cc(C)c2[nH]c(=O)c(C(c3nnnn3CC3CCCO3)N3CCC(C)CC3)cc2c1 (stereo not drawn) | -17% | 10% | -21% | -5 | 1 | -3.1% | 0.8
COC(=O)CCC(=O)Nc1ccc(S(=O)(=O)N2CCCCCC2)cc1 | -5% | -16% | 7% | -24 | 0 | -0.6% | -1.0

Continuation.
SMILES | gsp antag | gsp ag | Sfp PPTase inh | TRPV1 PAM | CtBP-E1A blk | ClpP mod | Menin-MLL FL inh
CCC(OC(=O)c1nsc(Cl)c1Cl)C(=O)NC(C)(C)CC (stereo not drawn) | 2% | 15%[15.4 µM] | -1% | 1 | 1 | -0.7% | 2.3
Cc1ccccc1C(=O)c1cccn1CC(=O)NCc1ccccc1Cl | -2% | 22% | 13% | -2 | -13 | -4.0% | -2.2
COc1ccc2c3n([n+]([O-])c2c1)CCN=C3c1ccc(Cl)cc1 | -7% | . | . | -4 | 11 | -2.2% | .
Cc1ccc(NC(=O)COC(=O)c2ccc(CN3CCCC3=O)cc2)cc1C | -10% | -25% | . | 28 | 2 | -1.4% | .
CCOc1ccccc1N=C1NC(=O)CS1 | 1% | -8% | 13% | 5 | -2 | 0.0% | 0.4

Screening results (PubChem BioAssay)
